Bioassay records as filed in PubChem.
Texas Red fluor: compound fluoresces in the Texas Red spectral region. Compound fluorescence, Texas Red channel, 547/618 nm; stronger effect = higher value. max dye-equivalent concentration, M. hit rate 0.06% among 59,000. AID 587; in the data active = max dye-equivalent concentration above about 10 nM; inconclusive = between about 1.1 nM and that limit
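Compound fluorescence was read after 15 min at room temperature in 100 mM Tris, pH 8.0, using 547 nm excitation and 618 nm emission across a concentration series. It was expressed as Texas Red dye-equivalent concentration from an on-plate standard curve.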
ERK AVP inh: inhibitors of vasopressin-stimulated ERK signaling pathway; HEK293-V1b, vasopressin-stimulated pERK AlphaScreen; Potency, µM (series often up to 57.5 µM), for the others: top-dose activity, negative = inhibition, actives largely listed as inhibitors; hit rate 0.99% among 72,000; AID 995; also: potency is read from the fitted curve at half-maximal effect; % is scaled to controls: 0 for no effect and ±100 for the full control effect; nearly all actives have a fitted effect of over 55% in size
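V1b-HEK293 cells; cpd 30 min 37C; 25 nM vasopressin 5 min; lyse 10 min; AlphaScreen beads 5 hr RT. Normalized to DMSO basal and 25 nM vasopressin; AC50 by Hill fit.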
Tau fil binding: tau filament binding. P10636. recombinant tau filaments, thioflavin S fluorescence, 15 h; filaments grown with octadecylsulfate alongside compound. Potency, µM (highest dose often 57.1 µM), for the others: top-dose activity change, negative = inhibition. hit rate 2% among 71,000;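 also: potency is read from the fitted curve at half-maximal effect; % is scaled to controls: 0 for no effect and ±100 for the full control effect; actives lower thioflavin S fluorescence by blocking filaments or displacing dye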
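Read-out: ThS fluorescence, 450 nm excitation/510 nm emission; lower signal marks blocked filament formation or displaced dye. Tau at 1 uM with 30 uM ODS, 10 uM ThS, 5 mM DTT, 100 mM NaCl, 10 mM HEPES pH 7.4; 15 h, 37 C.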
Rhodamine fluor: compound autofluorescence in rhodamine spectral region; Rhodamine-region fluorescence, 547/598 nm, Tris buffer; stronger effect = higher value; max dye-equivalent concentration, M; hit rate 0.05% among 59,000; in the data active = max dye-equivalent concentration above about 11 nM; inconclusive = between about 1.1 nM and that limit
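Compounds in 100 mM Tris buffer, pH 8.0, were incubated 15 min at room temperature, then read at 547 nm excitation and 598 nm emission. Fluorescence was normalized against a per-plate six-point rhodamine standard curve as dye-equivalent concentration.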
HEK293 cAMP ctrl: raises cAMP in parental HEK293 cells, TSHR agonist counter-screen; parental HEK293 CNG cAMP sensor, membrane potential fluorescence; Potency, µM (highest dose often 57.1 µM), without a hit: at the top dose activation, hits mostly activators; hit rate 2.5% among 73,000; also: potency is read from the fitted curve at half-maximal effect; % of control where 0% means no effect; nearly all actives have a fitted effect of over 55% in size
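Parental HEK 293 cells stably expressing a modified CNG channel (no TSHR) report cAMP rise as membrane depolarization. Membrane potential dye with 100 uM RO 20-1724 was loaded for 60 min at room temperature, then compound added for 30 min; fluorescence read at 590 nm.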
USP2a inhib: blocks human ubiquitin-specific protease USP2a; Potency, µM (top dose mostly 38.3 µM), inactives show top-dose activity change, negative = inhibition, actives largely listed as inhibitors; hit rate 0.1% among 60,000; USP2a enzymatic assay, qHTS inhibition; AID 927; O75604;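 also: potency is read from the fitted curve at half-maximal effect; nearly all actives have a fitted effect of over 60% in size; plate controls were DMSO for no effect and NEM full inhibition control for full effect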
Target sequence (O75604 whole entry, looked up): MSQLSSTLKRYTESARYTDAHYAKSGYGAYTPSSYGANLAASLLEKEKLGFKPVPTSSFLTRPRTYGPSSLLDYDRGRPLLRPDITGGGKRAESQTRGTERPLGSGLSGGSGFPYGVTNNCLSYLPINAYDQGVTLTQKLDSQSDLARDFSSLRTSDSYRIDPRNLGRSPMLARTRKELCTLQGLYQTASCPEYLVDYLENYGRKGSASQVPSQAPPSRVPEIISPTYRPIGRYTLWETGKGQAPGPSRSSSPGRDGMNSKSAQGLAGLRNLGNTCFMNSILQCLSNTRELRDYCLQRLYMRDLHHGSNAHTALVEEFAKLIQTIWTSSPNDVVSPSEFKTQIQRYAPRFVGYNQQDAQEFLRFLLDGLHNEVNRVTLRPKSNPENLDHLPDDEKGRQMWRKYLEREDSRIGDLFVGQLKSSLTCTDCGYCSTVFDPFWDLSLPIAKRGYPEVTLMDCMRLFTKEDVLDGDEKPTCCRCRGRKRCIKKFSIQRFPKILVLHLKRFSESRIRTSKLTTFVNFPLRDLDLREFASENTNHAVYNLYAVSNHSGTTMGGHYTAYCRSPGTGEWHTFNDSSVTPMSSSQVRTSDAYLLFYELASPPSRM
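USP2 core (20 nM final) was preincubated with compound for 30 min at RT in 20 mM Tris-HCl pH 8.0, 2 mM CaCl2, 2 mM beta-mercaptoethanol; Ub-PLA2 (20 nM) plus NBD C6-HPC (20 uM) then added, fluorescence read after 2.5 h.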
Fluorescein autfl: fluorescein region autofluorescence; Compound autofluorescence, 480/540 nm, fluorescein-equivalent; stronger effect = higher value; max fluorescein-equivalent concentration, M; hit rate 0.91% among 59,000; in the data active = max fluorescein-equivalent concentration above about 10 nM; inconclusive = between about 1.1 nM and that limit
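Autofluorescence profiling; 100 mM Tris, pH 8.0; incubation 15 min at RT; ex/em 480/540 nm; result as fluorescein-equivalent concentration.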
Luciferase inh: firefly luciferase inhibition; purified firefly luciferase, luminescence, 8 min; Potency, µM (doses to about 57.1 µM), inactives show at the top dose activity change, negative = inhibition, hits mostly inhibitors; hit rate 2.2% among 72,000; AID 411; also: potency is read from the fitted curve at half-maximal effect; % is scaled to controls: 0 for no effect and ±100 for the full control effect; nearly all actives have a fitted effect of over 40% in size
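Compounds were tested as concentration series (qHTS) against purified P. pyralis luciferase with luciferin and 10 uM ATP in 50 mM imidazole pH 7.2, 50 mM KCl, 7 mM MgCl2, 0.01% Tween 20, 0.05% BSA. Luminescence was read after 8 min at ambient temperature.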
HADH2 inhib: HADH2 (human) dehydrogenase inhibition; Q99714; recombinant HADH2, NADH fluorescence, beta-hydroxybutyryl-CoA; Potency, µM (doses to about 57.1 µM), for inactives: at the highest dose activity change, negative = inhibition, hits mostly inhibitors; hit rate 3.4% among 73,000; also: potency is read from the fitted curve at half-maximal effect; % is scaled to controls: 0 for no effect and ±100 for the full control effect; nearly all actives have a fitted effect of over 60% in size; many of its hits are not listed in these tables
Target sequence (Q99714 whole entry, looked up, one chain of several): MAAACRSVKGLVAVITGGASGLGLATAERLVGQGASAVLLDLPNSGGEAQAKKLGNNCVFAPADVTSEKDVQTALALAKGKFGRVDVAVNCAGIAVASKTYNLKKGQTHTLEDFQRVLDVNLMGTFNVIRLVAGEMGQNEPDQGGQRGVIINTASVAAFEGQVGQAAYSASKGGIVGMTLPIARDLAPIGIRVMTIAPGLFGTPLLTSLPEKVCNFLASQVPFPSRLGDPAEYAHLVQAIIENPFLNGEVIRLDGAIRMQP
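Buffer 100 mM Tris-HCl pH 9.0/0.01% Tween-20; HADH2 20 nM; NAD+ 1 mM; beta-hydroxybutyryl-CoA 90 uM (all final). 15 min cpd preincubation, RT.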
The depositor's hits bear a star; i = inactive; ? = inconclusive; . = not tested or not shown; ! = a repeat was not active; [ ] = remark or other dose. Unless noted, calls follow the shape of the dose curve; as a rule, active = well fitted curve in the direction sought with a large enough effect; inconclusive = small, poorly fitted or top-dose-only effect, or another doubt; inactive = no such curve, though single readings can be large; an effect the other way counts as inactive or inconclusive. These rows are one share of the data (hit frequency here may not be typical).

SMILES	Texas Red fluor	ERK AVP inh	Tau fil binding	Rhodamine fluor	HEK293 cAMP ctrl	USP2a inhib	Fluorescein autfl	Luciferase inh	HADH2 inhib
COc1ccc(-c2nc3cnc(N4CCN(C)CC4)nc3n(Cc3cccs3)c2=O)cc1	i	46%[activator]	262%	i	19%	273%[activator]	i	0%[11.4 µM]	5%
Nc1c(C(=O)NCCN2CCOCC2)c2nc3ccccc3nc2n1-c1cccc(F)c1	i	-10%	22%	i	26%	39%[activator]	?	2%	?
Cc1ccc(C2C3=C(CC(C)(C)CC3=O)N(CCN3CCOCC3)C3=C2C(=O)CC(C)(C)C3)cc1	i	10%	139%	i	26%	17%	i	0%	?
N[C@H](C(=O)O)[C@@H]1[C@@H](C(=O)O)C1(F)F	.	3%	?	.	11%	.	.	1%	-14%
CN1CCN(c2ncc3nc(-c4cn(C)c5ccccc45)c(=O)n(C)c3n2)CC1	i	3%	214%	i	-12%	232%[activator]	i	0%[11.4 µM]	5%
CC1CCc2cc(F)ccc2N1C(=O)c1cc2nc(-c3ccco3)cc(C(F)(F)F)n2n1 (stereo not drawn)	i	7%	4%	i	18%	20%	i	2%	6%
O=C1Nc2ccc(S(=O)(=O)NCCC3=CCCCC3)c3cccc1c23	i	-3%	-21%	i	?	18%	?	1%	7%
O=C(CN1C(=O)c2cccc3cccc1c23)Nc1cccnc1	i	-9%	4%	i	-7%	1%	i	1%	6%
CN1CCN(c2ncc3nc(-c4cccc(C#N)c4)c(=O)n(CCC#N)c3n2)CC1	i	-7%	0%	i	-15%	209%[activator]	i	0%[11.4 µM]	69%[activator]
COc1ccc(-n2c(=O)c(-c3ccc(Cl)cc3)nc3cnc(N(C)C)nc32)cc1	i	10%	427%	i	9%[0.457 µM]	169%[activator]	?	-1%[11.4 µM]	-4%
O=c1c(-c2cc(F)cc(F)c2)nc2cnc(N3CCOCC3)nc2n1C[C@H]1CCCO1	i	-27%	7%	i	3%[2.29 µM]	13%	?	0%[11.4 µM]	11%
c1ccc2nc(N3CCCC3)c(N3CCCC3)nc2c1	i	87%[activator]	139%	i	?	-15%	i	2%	0%
COc1cccc(Nc2ncc3ncc(=O)n(Cc4cccs4)c3n2)c1	i	-23%	17%	i	16µM*	176%[activator]	i	0%[11.4 µM]	16%
CCOC(=O)c1cc(-c2ccc3c(c2)OCCO3)nc2c1c(C)nn2CCC#N	?	-10%	-7%	i	20µM*	26%	i	1%	?
O=C1Nc2ccc(S(=O)(=O)NCc3ccco3)c3cccc1c23	i	?	-16%	i	7%	22%	i	3%	?
CCOC(=O)c1cnn2c(C(F)(F)F)cc(-c3ccccc3)nc12	.	15%	13µM*	.	?	2%	.	3%	1%
COCCOC(=O)C(C#N)c1nc2ccccc2nc1N1CCN(Cc2ccccc2)CC1 (stereo not drawn)	?	-28%	?	i	-52%[inhibitor]	25%	?	1%	-3%
O=C(C1=C(O)C(=O)N(c2ncccn2)C1c1cccs1)c1ccco1 (stereo not drawn)	.	?	69%[11.4 µM]	.	1%[11.4 µM]	10%[7.66 µM]	.	-2%	?
CCNc1ncc2nc(-c3ccccc3)c(=O)n(Cc3ccc(F)cc3)c2n1	i	-28%	-3%	i	?	40%[activator]	i	1%[11.4 µM]	116%[activator]
c1ccc(Cn2c(CSc3nnnn3-c3ccccc3)nc3ccccc32)cc1	.	-12%	i[11.4 µM]	.	6%[11.4 µM]	0%[7.66 µM]	.	2%	?
Cc1ccc2cc(C(c3nnnn3C(C)(C)C)N3CCCCCC3)c(=O)[nH]c2c1 (stereo not drawn)	i	-10%	62%	i	-5%	3%	?	-3%	-11%
CCC(C)(C)n1nnnc1CN(Cc1cc2cc(OC)ccc2[nH]c1=O)C1CCCC1	i	2%	36%	i	20µM*	30%[activator]	?	3%	-12%
COc1ccc(-c2nc3cnc(Oc4ccccc4)nc3n(Cc3cccs3)c2=O)cc1	i	13%	5%	i	14%	119%[activator]	i	1%[11.4 µM]	0%
CC(=O)Nc1nc2n(n1)C(c1ccc(Cl)cc1)C=C(C)N2 (stereo not drawn)	i	-9%	-11%	i	3%	-5%	?	0%	-7%
O=c1c(-c2cccs2)nc2cncnc2n1C1CC1	i	-40%	24%	i	?	-20%	i	1%[11.4 µM]	-15%
COCCn1c(N)c(C(=O)Nc2sc3c(c2C(=O)OC)CCCC3)c2nc3ccccc3nc21	i	9%	?	i	3%	0%	i	4%	17%
Cc1cc2c(c(=O)n1CC1CCCO1)C(c1ccco1)C(C#N)=C(N)O2 (stereo not drawn)	i	-2%	-6%	i	?	2%	i	0%	-8%
Nc1c(C(=O)NCC2CCCO2)c2nc3ccccc3nc2n1-c1ccccc1 (stereo not drawn)	i	-3%	12%	i	26%	26%	?	2%	-187%
COC(=O)CCc1c(C)c(C(=O)c2ccco2)c2ccccn12	i	45%[activator]	52%	i	?	-4%	?	0%	-1%
Cc1c(C2Nc3ccccc3NC3=C2C(=O)CC(C)(C)C3)cnn1C (stereo not drawn)	i	5%	136%	i	6%	-3%	1.1e-08M*!	0%[25.5 µM]	-10%
CCCC1C(C#N)=C(N)Oc2cc(C)n(C)c(=O)c21 (stereo not drawn)	i	9%	-4%	i	4%	-1%	?	2%	?
CCNc1ncc2nc(-c3ccc(OC)cc3)c(=O)n(CCOC)c2n1	i	-3%	38%	i	14%	59%[activator]	i	0%[11.4 µM]	12%
N#Cc1cc2cc3c(cc2nc1N1CCOCC1)OCO3	i	-4%	3%	i	12%	3%	i	-1%	?
COCCCn1c(CCC(=O)O)ccc1-c1cccs1	i	-3%	6%	i	14%	-2%	i	3%	-9%
N#CCCn1c(=O)c(-c2cc(F)cc(F)c2)nc2cnc(OCc3ccccc3)nc21	i	-26%	?	i	12%[0.457 µM]	80%[activator]	i	0%[11.4 µM]	26%
Cc1ccc2[nH]c(=O)c(CN(CCc3ccccc3)Cc3nnnn3CC3CCCO3)cc2c1 (stereo not drawn)	i	-10%	10%	i	?	32%[activator]	i	0%	4%
CC(C)Cn1c2nc3ccccc3nc2c2c(=O)n(CCN3CCOCC3)cnc21	i	-28%	25µM*	i	9%	38%[activator]	?	3%	?
CCn1nc(C)c(/C=C2\CCCC3=C2OC(N)=C(C#N)C3c2c(C)nn(CC)c2C)c1C (stereo not drawn)	i	11%	44%	i	0%	8%	2.4e-08M*	-2%	?
CCn1nc(NC(=O)c2ccccn2)c2cc3cc(C)ccc3nc21	?	46%[activator]	276%	i	24%	48%[activator]	i	7.9µM*	1%
COC(=O)C1=CNC=C(C(=O)OC)C1c1ccc(C(=O)OC)cc1	.	25%	4%	.	22%	14%	.	2%	190%[activator]

An excerpt from above in order of molecular weight, lowest first.
SMILES	Texas Red fluor	ERK AVP inh	Tau fil binding	Rhodamine fluor	HEK293 cAMP ctrl	USP2a inhib	Fluorescein autfl	Luciferase inh	HADH2 inhib
COCCCn1c(CCC(=O)O)ccc1-c1cccs1	i	-3%	6%	i	14%	-2%	i	3%	-9%
COC(=O)CCc1c(C)c(C(=O)c2ccco2)c2ccccn12	i	45%[activator]	52%	i	?	-4%	?	0%	-1%
COC(=O)C1=CNC=C(C(=O)OC)C1c1ccc(C(=O)OC)cc1	.	25%	4%	.	22%	14%	.	2%	190%[activator]
CC(C)Cn1c2nc3ccccc3nc2c2c(=O)n(CCN3CCOCC3)cnc21	i	-28%	25µM*	i	9%	38%[activator]	?	3%	?
COc1ccc(-c2nc3cnc(Oc4ccccc4)nc3n(Cc3cccs3)c2=O)cc1	i	13%	5%	i	14%	119%[activator]	i	1%[11.4 µM]	0%
COCCn1c(N)c(C(=O)Nc2sc3c(c2C(=O)OC)CCCC3)c2nc3ccccc3nc21	i	9%	?	i	3%	0%	i	4%	17%

The list continues.
SMILES	Texas Red fluor	ERK AVP inh	Tau fil binding	Rhodamine fluor	HEK293 cAMP ctrl	USP2a inhib	Fluorescein autfl	Luciferase inh	HADH2 inhib
CN1CCN(c2ncc3nc(-c4cn(C)c5ccccc45)c(=O)n(CCc4ccccc4)c3n2)CC1	i	10%	i	i	3%	140%[activator]	?	1%[11.4 µM]	9%
Cc1ccc2ccccc2c1[N+](=O)[O-]	.	-3%	7%	.	-56%[inhibitor]	.	.	.	0%
O=c1c(-c2ccccc2)nc2cnc(N3CCOCC3)nc2n1-c1ccccc1	?	-9%	28%	i	10%	83%[activator]	i	-1%[11.4 µM]	9%
COc1cc(C(=O)N2CCCN(c3nc4cc(C)ccc4cc3C#N)CC2)cc(OC)c1OC	i	-1%	8%	i	?	21%	i	-2%	-14%
N#CCCn1c(=O)c(-c2ccc(F)cc2)nc2cnc(OCc3ccccc3)nc21	i	?	-12%	i	3%	23%	i	1%[11.4 µM]	-2%
Cc1ccc2nc(N3CCC(C(=O)O)CC3)nc(-c3ccccc3)c2c1	?	4%	472%	i	17%	25%	?	-2%	-9%
N#CCCn1c(=O)c(-c2cccs2)nc2cnc(Oc3ccccc3)nc21	i	-14%	467%	i	11%	76%[activator]	?	1%[11.4 µM]	4%
COC(=O)c1ccc(C(=O)OC)c(NS(=O)(=O)c2ccc(NC(C)=O)cc2)c1	.	-1%	-2%[11.4 µM]	.	8%[11.4 µM]	-6%[7.66 µM]	.	-1%	?
